# ClpP mod = qHTS Assay for Activators of ClpP. ATP-dependent Clp protease proteolytic subunit (Bacillus subtilis (strain 168)), P80244. purified B. subtilis ClpP, FRET peptide cleavage, 20 min. Potency, µM (top dose mostly 57.5 µM), for the others: at the highest dose activity change, negative = active. 340,000 tested, 1.9% active; active = well fitted falling curve with a large enough effect; inconclusive = small, poorly fitted or top-dose-only effect; inactive = no such curve, though single readings can be large or run the other way; further: potency means the concentration at half of the fitted maximal effect; the source files actives as falling curves though it sought activators and does not explain the sign; nearly all actives have a fitted effect of over 65% in size; many hits overshoot -100%
# Target sequence (P80244 whole entry, looked up): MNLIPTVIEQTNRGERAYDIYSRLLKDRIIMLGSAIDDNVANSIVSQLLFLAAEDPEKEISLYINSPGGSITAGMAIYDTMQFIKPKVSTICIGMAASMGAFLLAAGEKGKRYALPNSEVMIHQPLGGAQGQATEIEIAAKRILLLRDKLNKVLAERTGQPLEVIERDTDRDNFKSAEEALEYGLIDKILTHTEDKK
#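 FRET quenching reversal measured ClpP activation: 10 microg/mL B. subtilis ClpP at pH 8 with the FRET-FV decapeptide, read at 430 nm after 320 nm excitation. The 20-min minus 0-min signal was scaled between DMSO/no-enzyme wells and ADEP (5.8 microM final).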
# TRPML1 blocker = human mucolipin-1 channel inhibition. Q9GZU1. TRPML1-inducible cells, Ca2+ dye fluorescence, FDSS; hits give low values; inhibition of EC80 agonist-evoked calcium signal. activity change, negative = inhibition, % (test concentration not listed). 390,000 tested, 0.02% active. AID 624415; in the data active means activity change below about -50%; inconclusive means about -30% to -50%; inactive means above about -30%;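 further: stimulus is agonist 54-4 at its EC80 concentration; on the % scale 0 is the no-effect control and ±100 the full control effect; compound concentration not given in the record; the text of the record puts the active cut at -80%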
# Target sequence (Q9GZU1 whole entry, looked up): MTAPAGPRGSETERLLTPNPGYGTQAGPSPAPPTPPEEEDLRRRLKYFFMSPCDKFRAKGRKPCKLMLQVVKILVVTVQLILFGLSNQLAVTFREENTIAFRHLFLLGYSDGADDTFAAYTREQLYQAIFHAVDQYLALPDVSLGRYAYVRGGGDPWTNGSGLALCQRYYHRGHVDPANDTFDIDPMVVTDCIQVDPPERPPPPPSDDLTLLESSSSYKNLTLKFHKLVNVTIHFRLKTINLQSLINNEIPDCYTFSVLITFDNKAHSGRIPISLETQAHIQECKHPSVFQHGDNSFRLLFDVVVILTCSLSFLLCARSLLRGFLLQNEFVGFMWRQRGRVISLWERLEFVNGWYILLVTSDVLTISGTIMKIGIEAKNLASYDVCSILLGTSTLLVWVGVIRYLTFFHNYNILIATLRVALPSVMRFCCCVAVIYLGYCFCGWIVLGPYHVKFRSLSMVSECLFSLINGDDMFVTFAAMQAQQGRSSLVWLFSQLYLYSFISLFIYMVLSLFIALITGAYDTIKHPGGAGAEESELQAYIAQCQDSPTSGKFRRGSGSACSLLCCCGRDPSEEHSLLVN
#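 TRPML1-DL cells, Tet-induced overnight (~16 h, 37 °C) at 1,500 cells/well, were loaded with Ca8 no-wash dye plus quencher for 45-90 min at room temperature. Compounds were pinned during FDSS kinetic reading; agonist 54-4 at EC80 (4 uM final) then added.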
# The depositor's hits bear a star; ? = inconclusive. Some of the compounds tested (hit frequency here may not be typical).
# Results follow in this order: TRPML1 blocker	ClpP mod
CCC(C)NC(=O)c1sc2nc(C)c(C(=O)Nc3ccc(Cl)cc3)c(-c3ccc(Br)cc3)c2c1N (stereo not drawn)
    ?	-3.9%
CCN(C(=O)c1cccn(Cc2cccc(Cl)c2)c1=O)c1ccccc1
    0.8	-0.7%
O=C(Cn1nc(-c2ccccc2)nc(Cc2ccccc2)c1=O)Nc1ccc(Cl)cc1
    -1.2	0.7%
COc1ccc(NC(=O)c2ccc(-c3cccc(Cl)c3C)o2)cc1
    -9.6	-20.8%
Cc1ccc(C(=O)NCc2ccc3c(c2)CCN3C(=O)c2ccc(C)cc2)cc1
    21.9	-0.3%
CC(=O)Nc1cc(C(=O)NCc2ccc(C)cc2)ccc1Sc1ccc(C)cc1
    -10.8	-0.9%
COc1ccc(NC(=O)Cn2c(=O)n(Cc3ccccc3)c(=O)c3oc4ccccc4c32)cc1Cl
    34.3	-19.4%
COc1ccccc1NC(=O)CN1C(=O)C2(SCC(=O)N2c2ccc(F)c(F)c2)c2ccccc21 (stereo not drawn)
    -18.8	-3.3%
COCCNC(=O)CN1C(=O)c2cccnc2Oc2ccc(Cl)cc21
    -28.9	-0.3%
CCCCC(=O)N1CCc2cc(OC)c(OC)cc2C1COc1ccc(C(=O)OCC)cc1 (stereo not drawn)
    -4.1	0.5%
Cc1cccc(NC(=O)NCCOCCn2c(=O)oc3ccccc32)c1C
    -12.5	1.1%
COc1ccc(NC(=O)C2(C)Cc3c(-c4ccc(C(N)=O)cc4)ccnc3O2)cn1 (stereo not drawn)
    -12.6	-7.5%
CCN(CC)c1ccc(C(=O)N2CCC(c3ccncc3)CC2)cc1
    25.4	-9.8%
CN(C)c1ccc(CNC(=O)c2cnc3sc(N4CCCC4)nn3c2=O)cc1
    26.2	-3.7%
COc1ccc2c(c1)c1c(c(=O)n(Cc3ccccc3)c(=O)n1CC(=O)Nc1c(C)cccc1C)n2C
    25.9	4.1%
Cc1c(C)n(Cc2ccccc2)c2ccc(C(=O)N3CCN(c4ccc(F)cc4)CC3)cc12
    -11.2	-26.7%
COc1cccc(NC(=O)Cn2nc(N3CCN(c4ccccc4)CC3)ccc2=O)c1
    9.8	-2.4%
COc1ccc(-c2nc(SCC(=O)Nc3ccc4c(c3)OCO4)c(-c3ccc(F)cc3)[nH]2)cc1OC
    24.0	-22.5%
CCOC(=O)c1[nH]c(C)c(CCC(=O)Nc2ccccc2C(=O)OC)c1C
    -1.6	-5.5%
CCc1ccc(NCc2cc3ccc(OC)cc3n(CC(=O)Nc3ccccc3OC)c2=O)cc1
    14.7	-4.9%
CC(C)C[C@@H](CN1CCC[C@@H]1CN1C(=S)NC[C@@H]1Cc1ccc(O)cc1)N1C[C@H](Cc2ccc(O)cc2)N(CC2CCCCCC2)C1=S
    -18.0	-6.7%
O=C(CSc1ccccc1)NCc1ccc2c(c1)CCN2C(=O)c1ccccc1
    35.6	-1.8%
O=C(CN1C(=O)CC(c2ccco2)Sc2ccccc21)Nc1ccc(Br)cc1 (stereo not drawn)
    10.3	-1.4%
COc1ccc(Nc2nn(-c3ccc(OC(F)(F)F)cc3)nc2C(C)=O)cc1
    17.7	-0.1%
CCOc1ccc(NC(=O)CC2C(=O)N(c3cccc(C)c3)C(=O)N2Cc2ccco2)cc1 (stereo not drawn)
    -5.5	1.2%
O=S(=O)(c1ccccc1)c1nnn2c1nc(NCc1cccs1)c1sccc12
    3.1	-17.9%
CCCCNc1ccc(-c2nc(-c3ccccc3)no2)cc1[N+](=O)[O-]
    -3.0	0.5%
Cc1ccc(NC(=O)CSc2nc(-c3ccc(C(C)(C)C)cc3)nc3cc(=O)[nH]n23)cc1C
    -13.7	-1.9%
CCN(Cc1ccccc1)Cc1c(O)ccc2c(=O)c(-c3ccccc3)c(C(F)(F)F)oc12
    -14.0	-1.4%
CCOc1ccc2oc(=O)cc(CN3CCN(C(=O)c4cccc(F)c4)CC3)c2c1
    6.2	-29.0%

# Reformatted with each value named: entries from further up.
Cc1c(C)n(Cc2ccccc2)c2ccc(C(=O)N3CCN(c4ccc(F)cc4)CC3)cc12
- TRPML1 blocker: -11.2
- ClpP mod: -26.7%

COc1cccc(NC(=O)Cn2nc(N3CCN(c4ccccc4)CC3)ccc2=O)c1
- TRPML1 blocker: 9.8
- ClpP mod: -2.4%

COc1ccc(-c2nc(SCC(=O)Nc3ccc4c(c3)OCO4)c(-c3ccc(F)cc3)[nH]2)cc1OC
- TRPML1 blocker: 24.0
- ClpP mod: -22.5%

# (more compounds)
# Results follow in this order: TRPML1 blocker	ClpP mod
CCC(CC)C(=O)Nc1c(C(=O)N2CCN(c3ccccc3F)CC2)oc2ccccc12
    -2.1	-12.2%
O=C(CSc1nc2c(oc3ccccc32)c(=O)n1-c1ccccc1)Nc1ccccc1F
    -15.6	-13.2%
O=C(Nc1cccc(C(=O)N2CCN(c3ccccc3)CC2)c1)c1nsc2ccccc12
    -12.5	-0.5%
O=C(CCCCCn1c(=O)c2sccc2n(CC(=O)Nc2ccccc2F)c1=O)NCc1ccc2c(c1)OCO2
    12.6	0.0%
CCc1ccc(-n2c(=O)c3c4c(sc3n(CC(=O)NC(C)CC)c2=O)CCCC4)cc1 (stereo not drawn)
    9.6	-1.8%
COc1ccc(OC)c(Nc2ncnc3c2nc2n3CCCC2)c1
    -0.1	-1.8%
CCCN(CCC)S(=O)(=O)c1ccc(N2CCCCS2(=O)=O)cc1
    5.1	-1.7%
CCN(CC)C(=O)Cn1cc(SCC(=O)Nc2ccccc2C)c2ccccc21
    30.8	0.4%
COc1ccc(N(Cc2ccccc2)C(=O)c2nc(S(C)(=O)=O)ncc2Cl)cc1
    -12.8	-5.3%
CCOCCCNC(=O)C1CCCN(Cc2nc(-c3ccc(CC)cc3)oc2C)C1 (stereo not drawn)
    -12.2	-1.3%
COC(=O)c1cc2oc(C)cc2n1CC(=O)Nc1ccc(OC)c(OC)c1
    11.7	-12.3%
CC(C)COC(=O)N(C)C[C@H]1OCc2cn(nn2)CCCC(=O)N([C@@H](C)CO)C[C@@H]1C
    -4.1	-2.0%
Cc1cccc2nc(-c3ccccn3)c(Nc3ccc(F)cc3)n12
    2.6	-2.6%
COc1cc(Cl)c(C)cc1NC(=O)c1cnc(N2CCCCC2)c2ccccc12
    -15.2	?
COc1ccccc1OCCSc1nc(-c2ccc(C(C)(C)C)cc2)nc2cc(=O)[nH]n12
    23.0	0.5%
CCCCN(C=O)c1c(CC)nc2c(OCc3ccc(S(C)(=O)=O)cc3)cccn12
    41.7	-26.2%
Cc1ccc(-c2cc(NC(=O)c3ccccc3Cl)on2)cc1
    -12.0	-5.2%
Cc1cccc(OCCSc2nc3ccccc3n2CC(=O)N2CCOCC2)c1
    -6.1	-3.6%
O=C(Nc1ccccc1C(F)(F)F)N1CCOc2ccc(Cl)cc21
    19.3	-3.5%
Cc1ccc(C2c3c(oc4ccccc4c3=O)C(=O)N2c2nnc(C)s2)cc1 (stereo not drawn)
    3.4	2.0%
CCN(C(=O)Cc1c(C(=O)O)c(C)cn1C)c1cccc(Cl)c1
    -6.9	1.2%
COc1ccc(-c2ccc(=O)n(CC(=O)Nc3cc(OC)ccc3OC)n2)cc1
    -6.0	-2.6%
CCCN(CCC)C(=O)Cn1c(=O)n(-c2ccc(CC)cc2)c(=O)c2c3c(sc21)CCC3
    50.8	-1.4%
COc1ccc(NC(=O)Cn2ccn(Cc3ccccc3)c(=O)c2=O)cc1Cl
    0.8	1.1%
Cc1cccc(NC(=O)c2ccc(-n3cnc4cccnc43)cc2)c1C
    -4.2	-0.7%
Cc1cc(C)c(NC(=O)c2nc3ccccc3nc2N2CCCCC2)c(C)c1
    18.8	-0.4%
O=C(Cn1ncn2c(cc3cc(F)ccc32)c1=O)NC1CCCCC1
    -1.1	-5.4%
CCc1ccc(C(=O)NC2=NC(c3ccccc3F)CC(=O)N2)cc1 (stereo not drawn)
    -5.6	-1.4%
COc1ccc(Cl)cc1S(=O)(=O)Nc1cccc(-c2ccc(N3CCOCC3)nn2)c1
    1.9	-1.0%
Cc1ccc2oc3c(c(=O)c2c1)C(c1ccccc1F)N(CCCN1CCOCC1)C3=O (stereo not drawn)
    12.8	-5.6%
O=C(NCc1ccccc1)c1cc(Sc2cccc(Cl)c2)nc2ccccc12
    49.1	-12.3%
N#Cc1ccccc1NC(=O)C(=O)NCCc1csc2nc(-c3cccc(F)c3)nn12
    -8.1	-1.5%
CCCCc1ccc(C(=O)Nc2ccc3nc(N4CCN(CC)CC4)cc(C)c3c2)cc1
    -9.2	47.1%
Cc1c(NC(=O)c2nc3ccccc3nc2N2CCCCC2)cccc1[N+](=O)[O-]
    35.5	0.3%
CC(=O)Nc1cccc(-c2ccnc3c2CC(C(=O)Nc2cccc(Oc4ccccc4)c2)O3)c1 (stereo not drawn)
    -16.4	-13.4%
COc1ccc(-c2noc(-c3ccc(NCCc4ccccc4)c([N+](=O)[O-])c3)n2)cc1
    49.9	0.4%
CCCCOc1ccc(CNC(=O)CN2C(=O)CCn3nc(-c4cn(C)c5ccccc45)cc32)cc1
    12.8	-8.7%
CCCn1c2ccccc2c2cnn(CC(=O)NCC3CCN(Cc4ccccc4C)CC3)c(=O)c21
    -1.3	?
Cc1ccc(NC(=O)C2CCCN(S(=O)(=O)c3ccc4[nH]c(=O)ccc4c3)C2)cc1Cl (stereo not drawn)
    4.7	14.7%
Cc1ccc(C(=O)Nc2ccc3oc(-c4ccccc4C)nc3c2)cc1
    37.5	4.0%
COc1ccc(NC(=O)C(NC(=O)/C=C\c2ccc3c(c2)OCO3)c2ccccc2)cc1 (stereo not drawn)
    2.3	?
COc1ccc(-c2noc(CSCC(=O)Nc3cc(OC)c(OC)c(OC)c3)n2)cc1OC
    14.5	3.6%
COc1ccc(NC(=O)CC2C(=O)N(c3ccc(OC)cc3)C(=O)N2C2CCCCC2)cc1 (stereo not drawn)
    25.2	0.3%
Cc1cccc(C(=O)Nc2c3c(nn2-c2ccc(Cl)cc2)CS(=O)(=O)C3)c1
    4.5	-2.2%
COc1ccccc1NS(=O)(=O)c1cn(C)c(C)n1
    -23.9	-0.7%
CCCN1CCN(c2ncc3c(n2)CCN(Cc2ccc(OC)c(OC)c2OC)C3)CC1
    -1.3	-3.2%
Cc1ccc2nc(N(Cc3cccnc3)C(=O)C3COc4ccccc4O3)sc2c1 (stereo not drawn)
    10.6	-0.3%
CN(C(=O)CSc1nc2ccc(NC(=O)c3cccc(F)c3)cc2s1)c1ccccc1
    -20.0	?
CCCN(C(=O)c1c(C)oc2ncnc(N3CCOCC3)c12)c1ccc(Cl)c(Cl)c1
    0.2	-2.0%
Cc1ccc(C2CC(=O)N(Cc3ccc(F)cc3)c3c2c(C)nn3-c2nc(C)cc(C)n2)cc1 (stereo not drawn)
    22.6	0.4%
Cc1ccc(OCC(=O)Nc2c(C(=O)c3ccc(Cl)cc3)oc3ccccc23)cc1C
    -10.8	-1.1%
Cc1ccc(NC(=O)c2cnn3c2NC(c2ccccc2)=CC3c2ccccc2)cc1 (stereo not drawn)
    2.0	-1.7%
CC(C)c1ccc(NC(c2nnc(-c3ccccc3)o2)c2ccc(F)cc2Cl)cc1 (stereo not drawn)
    16.5	-0.2%
CCOC(=O)c1[nH]c(C)c(C(=O)NC(CC)Cc2ccccc2)c1C (stereo not drawn)
    1.0	1.7%
CC1CCCN(S(=O)(=O)c2cc3c4c(c2)CC(=O)N4CCC3)C1 (stereo not drawn)
    0.5	0.7%
O=C(Nc1cccc(OCc2cc(=O)n3c4c(sc3n2)CCCC4)c1)c1ccc(F)cc1
    5.5	?
CN(CCCNC(=O)Cn1ncc2c([nH]c3ccccc32)c1=O)Cc1ccccc1
    5.2	2.8%
COc1ccc(Cl)cc1NC(=O)CSc1nc2c(oc3ccccc32)c(=O)n1Cc1ccco1
    -1.3	-1.8%
Cc1cc(C(=O)N2CCC2(C)C(=O)NCCC#N)nn1C (stereo not drawn)
    -0.5	-0.5%
Clc1ccc(-c2noc(-c3cccnc3N3CCN(c4ccccc4)CC3)n2)cc1
    -1.2	-5.4%

# (cont.)
# Results follow in this order: TRPML1 blocker	ClpP mod
Cc1cccc(Cn2nnc3c(=O)[nH]c(C4CCCN(C(=O)c5ccccc5Cl)C4)nc32)c1 (stereo not drawn)
    -12.4	-1.1%
O=C(c1ccc2c(c1)OCCO2)N(Cc1cccnc1)c1nc2c(F)cc(F)cc2s1
    24.9	?
COc1ccc(CNC(=O)CN2C(=O)CCCc3ccccc32)cc1
    14.4	-0.7%
CCCCN(C)CCNC(=O)Cn1ncc2c3ccccc3n(CCC)c2c1=O
    9.2	4.8%
Cc1cccc(N2CCN(C(=O)c3cn(C)c4ccc(S(=O)(=O)N(C)C)cc4c3=O)CC2C)c1 (stereo not drawn)
    -8.2	-0.3%
Cc1ccc(-n2ncc3c(NCCCN4CCOCC4)ncnc32)cc1C
    27.9	4.6%
Cc1cccc(N2CCN(c3nc4ccc(C)cc4n4cnnc34)CC2C)c1 (stereo not drawn)
    38.2	31.6µM*
Cc1nnc(N2C(=O)c3oc4ccccc4c(=O)c3C2c2ccc(F)cc2)s1 (stereo not drawn)
    2.0	-2.7%

# Screens (PubChem)
